Compound activity (PubChem)
WNV NS2B-NS3 inh: inhibitors of WNV NS2B-NS3 protease, primary screen, biochemical, fluorogenic substrate; 0.18% of 65,000 active; Genome polyprotein (West Nile virus), P06935; z-score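 (tested at a level between 10 and 100 µM)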; AID 577, 2007; fluorogenic substrate Ex360/Em465; hits give low values;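 active means z-score at -3 or under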;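 further: score is relative to mean and spread of the compound wells of a plate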
Target sequence (P06935 1371-1501 limits assumed): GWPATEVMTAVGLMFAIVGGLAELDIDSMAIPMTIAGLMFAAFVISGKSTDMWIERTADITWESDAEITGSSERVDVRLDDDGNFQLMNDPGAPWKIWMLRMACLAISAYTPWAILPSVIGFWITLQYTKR
Target sequence (P06935 1502-1679 limits assumed): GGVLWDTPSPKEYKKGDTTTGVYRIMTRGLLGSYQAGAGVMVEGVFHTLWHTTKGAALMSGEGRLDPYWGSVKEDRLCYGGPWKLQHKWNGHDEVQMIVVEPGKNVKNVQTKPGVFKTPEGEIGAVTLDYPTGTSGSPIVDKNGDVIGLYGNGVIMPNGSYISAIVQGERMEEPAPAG
Hsc70 ATP site: Hsc70 inhibitors, probe displacement, primary screen, biochemical, fluorescence polarization (AID 568); Hsc70 fluorescence polarization, probe displacement; higher % means a stronger effect; strong numbers were not always called active; one-dose displacement, % at 20 µM; IC50 in µM for titrated hits; 83,000 tested, under 10 active;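 active means displacement above 50% without optical interference and an IC50 on retest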;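 further: ATPase domain with a fluorescein-tagged ATP probe; 0% = vehicle and 100% = excess ADP; read after one hour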
MT1-MMP reporter: inhibitors of MT1-MMP promoter transcription, cell-based, luciferase reporter, luminescence (AID 618). MT1-MMP promoter luciferase reporter cells, luminescence. calls from a first round at 10 µM; hits with a dose series show EC50 in µM. 0.62% of 87,000 active;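 active means over half of the reporter light lost at 10 µM or EC50 under 50 µM; inactive means the rest and hits that failed the dose series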;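 further: actives suppress MT1-MMP promoter-driven transcription so potencies describe inhibitors; HT1080 fibrosarcoma cells; overnight exposure; toxic or luciferase-blocking compounds were not removed from the actives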
* marks the source's active call; other numbers are inactive results; i = inactive; x = not tested or not shown.

Each structure is followed by: WNV NS2B-NS3 inh | Hsc70 ATP site | MT1-MMP reporter
1	O=C(c1coc(=O)c(Br)c1)N1CCCc2ccccc21
    -0.13 | -13% | i
2	CC1(C(=O)O)CCC(C(=O)N2CCOCC2)C1(C)C (centres undefined)
    0.16 | 0.3% | i
3	CC(C)N(Cc1nc(-c2ccccc2)no1)C(=O)c1ccc2c(c1)OCO2
    1.5 | 2.8% | i
4	OCCN1CCN(c2nc(-c3ccccc3)c3cc(Cl)ccc3n2)CC1
    -1.6 | 1.5% | i
5	CCSc1oc(-c2ccco2)nc1S(=O)(=O)c1ccc(F)cc1
    -0.15 | -11% | i
6	Cc1cc(NC(=O)c2cccc(S(=O)(=O)N3CCOCC3)c2)no1
    x | 5.0% | i
7	CCN(c1ccccc1)S(=O)(=O)c1cnc[nH]1
    0.89 | 4.9% | i
8	COc1ccc2nc(NC(=O)CSc3nccc(C)n3)sc2c1
    x | 8.8% | i
9	CCn1cc(C(=O)NC2CCc3ccccc32)c(=O)c2ccc(C)nc21 (centres undefined)
    0.34 | -6.3% | i
10	O=C(Cn1nc(-c2ccccc2)c2ccccc2c1=O)NCC1CCCO1 (centres undefined)
    -0.64 | 4.7% | i
11	CCOC(=O)c1cc2sccc2n1CC(=O)N1CCc2ccccc21
    0.4 | 4.4% | i
12	Cc1cc(Nc2ccc(F)cc2Cl)n2ncnc2n1
    -0.48 | 3.5% | i
13	CCOC(=O)c1cnc(SCc2nc(N)nc(Nc3ccc(C)cc3)n2)nc1N
    -0.2 | -7.9% | i
14	CCc1nnc(NC(=O)CSc2nnc(-c3ccoc3C)n2-c2ccccc2)s1
    1.4 | 4.5% | i
15	CCOC(=O)N1CCN(C(=O)c2ccc3nc(SCc4ccc(F)cc4)n(C)c3c2)CC1
    0.68 | 2.1% | i
16	CC(=O)N1CCN(c2ccc(NCc3ccc(C)cc3)cc2)CC1
    -1.2 | 2.0% | i
17	CCOc1ccc(NC(=O)c2oc3ccccc3c2NC(=O)CC)cc1
    0.62 | 4.0% | i
18	Nc1nnc(SCc2ccc3c(c2)OCO3)s1
    -0.02 | 1.5% | i
19	Cc1ccc(C)c(Cn2cnc3c(cnn3C(C)(C)C)c2=O)c1
    0.23 | -0.2% | i
20	COc1ccc2oc(=O)c(C(=O)N3CCN(C45CC6CC(CC(C6)C4)C5)CC3)cc2c1
    0.6 | 2.4% | i
21	Cc1cc(C(=O)COC(=O)c2cccs2)c(C)n1-c1c(C)n(C)n(-c2ccccc2)c1=O
    0.34 | 7.2% | i
22	CCCc1cc(=O)n2[nH]c(SCc3ccccc3)nc2n1
    2.4 | -2.8% | i
23	O=C(Nc1ccccc1)c1ccc(NCc2cccnc2)c(S(=O)(=O)N2CCOCC2)c1
    -0.58 | -6.4% | i
24	CC(=O)NC1CCC(C(=O)O)(c2ccccc2)C1 (centres undefined)
    -1.1 | 4.9% | i
25	Cc1nc2cc(-c3cccc(F)c3)nn2c(C)c1CCC(=O)N1CCN(c2ccccn2)CC1
    0.46 | 3.9% | i
26	Cc1ccc(S(=O)(=O)N(CC(=O)NCc2ccco2)C2CCCCC2)cc1
    x | 1.3% | i
27	O=c1oc(-c2ccco2)nc2c1cnn2-c1ccccc1
    0.36 | 0.2% | i
28	CC(C)(C)c1ccc(CN2N=Nc3ccccc3S2(=O)=O)cc1
    x | 0.4% | i
29	COCCOC(=O)c1[nH]c2c(c1C)C(=O)CC(c1ccc(N(C)C)cc1)C2 (centres undefined)
    -1.1 | -3.0% | i
30	CC(O)c1nc2ccc(Cc3ccc4nc(C(C)O)[nH]c4c3)cc2[nH]1 (centres undefined)
    0.13 | 5.0% | i
31	COC(=O)C(CCSC)NC(=O)C(NC(=O)C1CCC(C)CC1)C(C)C (centres undefined)
    -1.1 | 2.2% | i
32	CCOC(=O)C1CCCN(S(=O)(=O)c2ccc(F)c(C(=O)Nc3ccc(F)c(F)c3)c2)C1 (centres undefined)
    x | 0.5% | i
33	Nc1nc(-c2ccccc2)nc(-c2ccccc2O)n1
    0.08 | 5.0% | i
34	Cc1cc(NC(=O)COC(=O)COc2ccc3c(c2)CCC3)no1
    0.61 | 12% | i
35	C=CCn1c(C)cc(C(=O)CSc2n[nH]c(N)n2)c1C
    x | -1.4% | i
36	CC(C)OCC(O)CN1CCN(CC(O)COc2ccc3c(c2)OCO3)CC1 (centres undefined)
    -0.61 | 0.7% | i
37	O=C(CSc1nc(N2CCCCC2)nc(N2CCCCC2)n1)N1CCc2ccccc21
    -1.2 | -2.7% | i
38	CCCNC(=O)c1ccc2c(c1)ncn2-c1ccccc1OC
    -0.51 | 0.9% | i
39	Cc1nnc(SCC(=O)NC2CC2)n1CCc1ccccc1
    1.1 | -1.4% | i
40	Cc1ccc(NC(=O)c2ccc(-c3nn(C)c(=O)c4ccccc34)cc2)cc1
    x | 0.1% | i
41	CCN1CCN(C(=O)c2cc3c(=O)n4ccccc4nc3n2Cc2ccccc2)CC1
    2.6 | -4.8% | i
42	Cc1ccnc2nc(C(=O)NC3=NCCS3)nn12
    -0.13 | -7.4% | i
43	C=CCN1C(=NC(=O)CCCC(=O)O)SC2CS(=O)(=O)CC21 (centres undefined)
    -0.26 | -3.1% | i
44	CCCn1cc(C(CC(=O)O)C(=O)O)c2ccccc21 (centres undefined)
    -0.4 | 0.1% | i
45	COc1cccc(C(=O)Nc2nc(C)cs2)c1
    x | -7.0% | i
46	O=c1[nH]c2ccc(S(=O)(=O)Nc3ccc(-c4nnc5n4CCCCC5)cc3)cc2o1
    1.4 | -3.8% | i
47	COc1ccc(S(=O)(=O)N2CCN(c3cccc(C)c3C)CC2)cc1
    1 | 4.0% | i
48	O=C(Nc1ccc2c(c1)ncn2-c1ccccc1)c1ccco1
    -0.28 | -2.3% | i
49	CCOc1ccc(C(=O)OCC(=O)NCc2ccco2)cc1OCC
    -0.8 | -2.2% | i
50	Cc1nn(C)cc1/C=N/n1nnnc1N
    -0.11 | 6.4% | i
51	Cc1ccc(/C(O)=C2\C(=O)C(=O)N(CCCN(C)C)C2c2ccccn2)cc1 (centres undefined)
    -0.54 | 0.4% | i
52	CC1CCCC(C(=O)O)N1C(=O)CCSC(=O)c1ccccc1 (centres undefined)
    1.1 | -7.9% | i
53	O=C(NC1CCS(=O)(=O)C1)OC1CCCCC1 (centres undefined)
    -0.4 | -7.8% | i
54	CCCC(=O)NC1=C(C#N)C2(CCCCC2)Cc2ccccc21
    x | -4.2% | i
55	COc1ccccc1C1/C(=C(/O)c2ccc(C)cc2)C(=O)C(=O)N1CC(C)O (centres undefined)
    1.9 | 0.5% | i
56	Cc1ccc(N2C(=O)c3ccc(C(=O)O)cc3C2=O)cc1C
    x | 3.2% | i
57	CC(=O)Nc1ccc(C2NC(=O)c3ccccc3O2)cc1 (centres undefined)
    1.2 | 5.8% | i
58	CC1=C(C(N)=O)C(c2cccnc2)n2nc(-c3cccc(C)c3)nc2N1 (centres undefined)
    2.3 | -0.2% | i
59	Cc1ccc(C(=O)C2CCNCC2)cc1
    0.12 | -1.2% | i
60	CC(C)Sc1nc(N)c2c3c(sc2n1)CN(C)CC3
    -0.27 | -3.7% | i

(cont.)
Each structure is followed by: WNV NS2B-NS3 inh | Hsc70 ATP site | MT1-MMP reporter
61	COc1ccc(C)cc1-n1nnnc1SCc1nc2ccccc2s1
    0.6 | 4.1% | i
62	Cc1cn(C(=O)c2ccccc2)c(=S)n1-c1ccc(Cl)cc1
    x | 1.7% | i
63	O=C(CCCN1C(=O)c2ccccc2C1=O)Nc1nncs1
    -1 | 4.0% | i
64	CCCOc1ccc(N2C(=O)CC(N3CCC(c4nncn4CC)CC3)C2=O)cc1 (centres undefined)
    -0.35 | -0.7% | i
65	O=C1c2oc3ccccc3c(=O)c2C(c2cccs2)N1CCCN1CCOCC1 (centres undefined)
    -0.82 | -10% | i
66	O=C1C2C3C=CC(C3)C2C(=O)N1c1nccs1 (centres undefined)
    -1.2 | -1.1% | i
67	Cc1ccc(NC(=O)CSc2nnc(Cc3cccn3C)n2-c2ccc(F)cc2)cc1
    -1.2 | 7.7% | i
68	CCCCOC(=O)c1ccc(NC(=O)c2cnc3n(c2=O)CCS3)cc1
    1.1 | -3.0% | i
69	CCOC(Cn1c(CCCO)nc2ccccc21)OCC
    x | -3.4% | i
70	CC(C)CC1NC(=O)N(CC(=O)c2ccc3c(c2)OCCO3)C1=O (centres undefined)
    -0.51 | -6.2% | i
71	CC(C)Cn1c(-c2ccccc2F)n[nH]c1=S
    -0.37 | -3.1% | i
72	CCOc1cccc2c1OC1(C)CC2NC(=O)N1c1cccc(F)c1 (centres undefined)
    -0.35 | -9.0% | i
73	O=C(CSc1nnc(-c2cccnc2)n1CCc1ccccc1)NCc1ccccc1
    x | -1.6% | i
74	Cc1cc(C)n2nc(SCC(=O)c3ccc[nH]3)nc2n1
    0.49 | 96% | i
75	CCCCN(C(=O)CN1C(=O)C2CC=CCC2C1=O)c1c(N)n(CCC)c(=O)[nH]c1=O (centres undefined)
    0.92 | 0.5% | i
76	Cc1cccc(C(=O)Oc2ccc(/C=N/O)cc2)c1
    x | 5.5% | i
77	COc1ccc(CCNC(=O)COc2ccc(S(=O)(=O)N3CCOCC3)cc2)cc1OC
    0.16 | 1.3% | i
78	Cn1nnnc1SCc1ccc(C(=O)Nc2nccs2)cc1
    0.71 | 4.8% | i
79	Cc1ccc(S(=O)(=O)NC(C(=O)OCC(=O)NC(=O)c2cccn2C)C(C)C)cc1 (centres undefined)
    -0.7 | 3.1% | i
80	O=C(Oc1c(Cl)cc(Cl)c2cccnc12)c1ccco1
    x | -6.3% | i
81	CCCCc1nc2ccccc2n1Cc1nnc2n1-c1ccccc1SC2
    -0.94 | 11% | i
82	Nc1nnc(Cc2ccc(Cl)c(Cl)c2)s1
    0.1 | -4.0% | i
83	COc1cccc(-c2nnc(SCC(=O)Nc3cc(C)on3)o2)c1
    -0.58 | 5.7% | i
84	CC(C)OC(=O)c1c(NC(=O)c2cccs2)sc2c1CCCC2
    -0.88 | 5.6% | i
85	COc1ccc(N2CCn3c2nc2c3c(=O)n(CCc3ccccc3)c(=O)n2C)cc1
    -1.8 | 4.1% | i
86	CCc1c(C)sc(NC(=O)c2ccc(Br)o2)c1C(=O)OC
    -1.6 | 8.5% | i
87	COCCCn1c(-c2ccc(S(=O)(=O)N3CCOCC3)cc2)csc1=Nc1ccccc1
    x | -5.0% | i
88	O=C(NCC1CCCO1)c1c(O)c2ccccc2[nH]c1=O (centres undefined)
    0.11 | 6.4% | i
89	CC(=O)N1CCN(c2nc(C)nc3sc4c(c23)CCC(C)C4)CC1 (centres undefined)
    x | 6.0% | i
90	CN(C)c1ccc(C(c2nnnn2CCOC(=O)Nc2ccc(Cl)cc2)N2CCOCC2)cc1 (centres undefined)
    -0.28 | -4.3% | i
91	O=C(O)CCC(=O)NCc1ccc(C(=O)O)cc1
    x | 1.5% | i
92	COc1ccc(CCNc2nc(-c3ccco3)cc(C(F)(F)F)n2)cc1OC
    -0.51 | -5.6% | i
93	OCC(CO)(CO)N=Cc1c(O)ccc2ccccc12
    -0.42 | 9.1% | i
94	COC(=O)c1cc(Br)c(=O)n(CCc2ccc(F)cc2)c1
    -0.62 | 0.8% | i
95	COc1ccc(NC(=O)C2Cc3ccccc3CN2C(=O)c2ccccc2)cn1 (centres undefined)
    0.23 | 69% | i
96	O=C(c1ccc(N2CCCC2=O)cc1)N1CCCCCC1
    0.53 | 0.3% | i
97	Cn1nccc1C(=O)NCCN1C(=O)OC(C)(C)C1(C)O (centres undefined)
    1.4 | 2.8% | i
98	N#C/C(=C(/O)CSc1nnc(Cc2cccs2)n1C1CCCCC1)c1nc2ccccc2[nH]1
    1.2 | -10% | i
99	COc1ccc(C2CC(=O)c3c(C)nc(N4CCN(c5ccccc5)CC4)nc3C2)cc1 (centres undefined)
    -0.6 | -3.0% | i
100	COc1ccc(NCc2nnc(SCC(=O)c3ccc(C)cc3)o2)cc1
    x | -1.1% | i
101	COCCN(C(=O)c1csnn1)C(C(=O)NC1CCCCC1)c1cccs1 (centres undefined)
    -0.44 | 1.6% | i
102	Cc1ccc2nc(SCc3nnc(-c4ccccc4Br)o3)[nH]c2c1
    x | -8.7% | i
103	C=CCNc1oc(-c2ccc(OCC)cc2)nc1C#N
    1.3 | 2.9% | i
104	Cc1nn(-c2ccccc2)c2c1C(c1ccccc1)C(C#N)=C(N)O2 (centres undefined)
    -1.1 | -1.0% | i
105	C=CCNC(=O)CCCOc1cc(C)ccc1C
    1.1 | 6.1% | i
106	C=C(C)Cn1c(CCCNC(=O)CC)nc2ccccc21
    x | -1.2% | i

Structural class, the entries above containing a cyano group.
Each structure is followed by: WNV NS2B-NS3 inh | Hsc70 ATP site | MT1-MMP reporter
54	CCCC(=O)NC1=C(C#N)C2(CCCCC2)Cc2ccccc21
    x | -4.2% | i
98	N#C/C(=C(/O)CSc1nnc(Cc2cccs2)n1C1CCCCC1)c1nc2ccccc2[nH]1
    1.2 | -10% | i
103	C=CCNc1oc(-c2ccc(OCC)cc2)nc1C#N
    1.3 | 2.9% | i
104	Cc1nn(-c2ccccc2)c2c1C(c1ccccc1)C(C#N)=C(N)O2 (centres undefined)
    -1.1 | -1.0% | i
